# High-throughput results deposited in PubChem by Southern Research Institute.
# Mtb H37Rv = Confirmatory growth inhibition assay against Mycobacterium tuberculosis H37Rv, potency (AID 1949) | inhibition, % at 10 µg/mL, or IC50 in µg/mL where a hit was titrated | most inactive calls were filed without a number and no value below 0 was filed | actives 1.6% (n = 100,000);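 active = confirmed in a dose series; inconclusive = about 50% or more but not retested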;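 note: bacteria grown 7 days with compound before Alamar blue readout; 0% = untreated bacteria and 100% = reference antibiotic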
# * marks the source's active call; other numbers are inactive results; i = inactive; ? = inconclusive. This is a subset (hit frequency here may not be typical).
smiles,Mtb H37Rv
COC(=O)COc1ccc(NC(=O)c2ccco2)cc1,?
COCCNC(=S)Nc1ccccc1SC,i
CCOc1cccc(NC(=O)C2CC(=O)N(c3cccc(Cl)c3C)C2)c1 (stereo unspecified),i
O=C(CSCc1cccc(Cl)c1)NC1CC1,i
CC(C)NC(=O)C1(c2ccccc2)CCOCC1,2%
CCC(C)c1ccccc1NC(=S)Nc1ccc(C(C)=O)cc1 (stereo unspecified),i
CCOC(=O)c1cc(NC(=O)CN2C(=O)COc3ccc(Cl)cc32)ccc1Cl,23%
CC(C)(C)NS(=O)(=O)c1ccc(Br)cc1,2%
CCn1c(SCC(=O)C(C)(C)C)nc2sc(C)c(C)c2c1=O,3%
COc1ccc(CCNC(=S)NNC(=O)C(Sc2ccccc2)c2ccccc2)cc1OC (stereo unspecified),i
O=C(CCCOc1ccc(Cl)cc1Cl)Nc1nnc(C(F)(F)F)s1,3%
Cn1c(=O)c2c(ncn2CCCNC2=CC(C)(C)CC(=O)C2)n(C)c1=O,0%
Cc1c(NC(=O)Cc2cccs2)cccc1C(=O)NN1C(=O)c2ccccc2C1=O,2%
Cc1c(CCC(=O)O)c(=O)oc2cc(OCc3ccc(C(=O)O)cc3)ccc12,i
Cc1ccc(S(=O)(=O)NC(C)C(=O)Nc2ccc3c(c2)OCCO3)cc1 (stereo unspecified),4%
O=C(NCCCc1ccccc1)NC1CCCCC1,i
COc1ccccc1C1C(C(=O)Nc2ccc(F)cc2)=C(C)NC2=C1C(=O)CC(C)(C)C2 (stereo unspecified),2%
O=S(=O)(NC(c1ccccc1)c1ccccc1)c1ccc(I)cc1,10%
CC(=O)Nc1ccccc1NC(=O)COc1ccc(C(C)(C)C)cc1Br,2%
CCOC(=O)C1CCCN(C2CC(=O)N(c3ccc(C)c(C)c3)C2=O)C1 (stereo unspecified),i
Cc1sc(NC(=O)CN2CCOCC2)c(C(=O)c2ccccc2)c1C,i
Cc1onc(-c2c(F)cccc2Cl)c1C(=O)NCc1ccco1,2%
OCCNC(=S)Nc1ccc(Nc2ccccc2)cc1,2%
CCOc1ccccc1NS(=O)(=O)c1ccc(C)cc1,i
O=C1CCC(=O)N1OCCOc1ccc2ccccc2c1Br,i
CCC(=O)Nc1ccccc1C(=O)C(=O)O,i
N#CSCC(=O)N1c2ccccc2Sc2ccc(C(F)(F)F)cc21,i
O=C(NCc1ccco1)C1CC(c2ccccc2O)=NO1 (stereo unspecified),1%
O=C1C(=O)N(Cc2cccc3ccccc23)c2ccc(Cl)cc21,21µg/mL*
O=C(Nc1ccc2oc(=O)ccc2c1)c1ccc(-c2ccccc2)cc1,4%
COc1cc(NS(=O)(=O)c2ccc(OC)c(OC)c2)c(OC)cc1Cl,i
COc1cc(NC(=S)Nc2ccccc2Cc2ccccc2)cc(OC)c1,i
Fc1ccccc1NC(=S)NCc1cccs1,i
CCOC(=O)c1cnn(-c2ccccc2)c1NC(=O)c1ccc([N+](=O)[O-])c(C)c1,i
C=CCn1c(SCC(=O)N2CCOCC2)nc(O)c(CC)c1=O,i
COc1ccc(C(CN)Cc2ccccc2)cc1OC (stereo unspecified),i
Cc1cc(OCC(=O)Nc2ccc(S(=O)(=O)N3CCC(C)CC3)cc2)ccc1Br,i
CCOC(=O)c1ccccc1OC(=O)c1c(F)c(F)c(F)c(F)c1F,9.8µg/mL*
Cc1cc(S(=O)(=O)Nc2ccccc2C)ccc1F,i
CC1CN(C(=S)NC(=O)C(C)(C)C)CC(C)O1 (stereo unspecified),0%
Cc1ccc(N2CC(C(=O)Nc3cccc(Br)c3)CC2=O)cc1C (stereo unspecified),i
CC1CN(C(=O)C2CCN(S(=O)(=O)c3ccccc3[N+](=O)[O-])CC2)CC(C)O1 (stereo unspecified),i
CCOc1cc(Br)c(CNCCCN2CCOCC2)cc1OCC,i
Cc1cccc(NC(=O)Nc2ccccc2)c1C,i
Cc1cc(Br)ccc1OCCCCN1CCCC1,i
Cc1ccc(CC(=O)Nc2cc(C(F)(F)F)ccc2Cl)cc1,i
CCCCC(=O)Nc1cccc(NC(=O)c2ccco2)c1,5%
Cc1ccc(S(=O)(=O)N(CC(=O)Nc2ccccc2C(N)=O)c2ccccc2F)cc1,i
CNC(=O)C1=C(C)NC(=S)NC1c1ccc(Cl)cc1Cl (stereo unspecified),i
O=C(Cn1nc(-c2ccccc2)c2ccccc2c1=O)Nc1ccc(O)cc1,i
CCc1nc2ccc(I)cc2c(=O)n1-c1ccccc1,i
Cc1c(-c2ccccc2)[n+](=O)c(-c2ccc(Br)cc2)c(C)n1[O-],i
CC(=O)Nc1ccc(NC(=O)c2ccc(COc3ccc(Cl)cc3Cl)cc2)cc1,i
COc1ccc(/C(N)=N/OC(=O)COc2ccc(C(C)C)cc2Br)cc1OC,i
Cc1ccc(S(=O)(=O)NCCC(=O)Oc2ccc3c4c(c(=O)oc3c2)CCCC4)cc1,i
O=C(Nc1c(-c2cccs2)nc2ccc(Cl)cn12)c1ccccc1,i
CC(NC(=O)c1ccc(C(=O)NC(C)C2CC3CCC2C3)nc1)C1CC2CCC1C2 (stereo unspecified),10%
COc1ccc(NC(=O)C(=O)NC2CC2)c(OC)c1,i
CC(C)c1cc(C(=O)NNC(=S)NCc2ccco2)c(O)c(C(C)C)c1,i
O=C(CSc1nc2ccccc2c(=O)[nH]1)Nc1nc(-c2ccc(Br)cc2)cs1,9%

# Other results follow.
smiles,Mtb H37Rv
CCCC(=O)Nc1ccc(Cl)c(NC(=O)COc2ccccc2C)c1,i
Cc1ccc(-c2n[nH]c(=S)n2C)cc1Cl,i
Cc1cc(NC(=O)C(=O)NCc2ccncc2)ccc1Br,i
COCCCNC(=O)c1c(NC(=O)c2ccco2)sc2c1CCCC2,i
Cc1sc2nc(SCc3n[nH]c(=S)n3-c3ccccc3)nc(N)c2c1C,0%
CCOc1ccc2nc(NS(=O)(=O)c3ccc4c5c(cccc35)C(=O)N4)sc2c1,i
O=C(Nc1ccc2c(c1)OCO2)C1CCN(S(=O)(=O)c2ccccc2)CC1,i
N#C/C(=C/c1ccc(OCC(=O)N2CCOCC2)cc1)c1ccc(F)cc1,i
CCN(CC)C(=O)CN(C1CCCCC1)S(=O)(=O)c1c(C)cc(C)cc1C,3%
Nc1cccc(-c2cc3ccccc3oc2=O)c1,7%
O=C(Nc1ccccc1F)c1ccc(CSc2ncccn2)cc1,i
COc1cccc(C(=O)NC2CCCCCC2)c1,i
Cc1nc(N)c2c3c(sc2n1)CCCC3,i
CCOC(=O)c1ccc(NC(=S)N2CCN(c3cccc(OC)c3)CC2)cc1,3%
CNc1nc(NC(C)(C)C)nc(OCC(F)(F)F)n1,0%
O=C(CSc1n[nH]c(-c2ccc(Cl)cc2)n1)NCc1ccccc1,i
O=C(NCCC(c1ccccc1)c1ccccc1)C12CC3CC(CC(C3)C1)C2,1%
O=C1N/C(=N/N=C/c2ccccc2Cl)SC1Cc1ccc(Cl)cc1 (stereo unspecified),i
CC(C)Oc1ccc(C(=O)Nc2cccc3c2C(=O)c2ccccc2C3=O)cc1,i
COc1c(C)cc(Br)cc1C(=O)Nc1ccc(CN2CCOCC2)cc1,0%
CCc1nc(SCC(=O)Nc2ccc(NC(C)=O)cc2)n[nH]1,i
CCc1cccc(CC)c1NC(=O)CCc1ccc(OC)cc1,2%
O=C(Nc1ccc(F)cc1F)c1ccccc1I,i
COc1ccc(NC(=S)NCc2ccccc2Cl)cc1,i

# Following part
SMILES,Mtb H37Rv
O=C1NC(c2ccc(F)cc2)(C(F)(F)F)C(=O)N1Cc1ccco1 (stereo unspecified),i
Cc1ccc(C(=O)N(C)c2ccccc2)cc1I,9%
CCOc1ccccc1NS(=O)(=O)c1cc(C(C)C)ccc1C,i
CCOC(=O)C1CCCN(C(=O)CCC2CCCCC2)C1 (stereo unspecified),i
CCOC(=O)c1sc2ncnc(N3CCN(C)CC3)c2c1C,i
Cc1ccccc1CSc1nncn1N,2%
CCOc1ccc(OCCOc2ccccc2)cc1,i
COc1ccc(CNC(=O)c2ccc3ccccc3n2)cc1,i
CCOc1cc(C(=S)N2CCCC2)ccc1OCC(=O)N1CCOCC1,i
O=[N+]([O-])c1ccc(Cc2noc(COc3cccc4ccccc34)n2)cc1,6%
Cc1ccc(CNC(=O)NC2CCCCC2)cc1,i
CC1=C(C(=O)N2CCOCC2)C(c2ccsc2)C2=C(CCCC2=O)N1 (stereo unspecified),i

# Random excerpt: ten compounds from above
SMILES,Mtb H37Rv
CCOC(=O)c1sc2ncnc(N3CCN(C)CC3)c2c1C,i
Cc1ccccc1CSc1nncn1N,2%
CCOc1ccc(OCCOc2ccccc2)cc1,i
O=C1NC(c2ccc(F)cc2)(C(F)(F)F)C(=O)N1Cc1ccco1 (stereo unspecified),i
Cc1ccc(CNC(=O)NC2CCCCC2)cc1,i
COc1ccc(CNC(=O)c2ccc3ccccc3n2)cc1,i
CCOc1ccccc1NS(=O)(=O)c1cc(C(C)C)ccc1C,i
CCOC(=O)C1CCCN(C(=O)CCC2CCCCC2)C1 (stereo unspecified),i
Cc1ccc(C(=O)N(C)c2ccccc2)cc1I,9%
O=[N+]([O-])c1ccc(Cc2noc(COc3cccc4ccccc34)n2)cc1,6%

# Further structures follow:
SMILES,Mtb H37Rv
NC(=O)Cc1ccc(Br)cc1,i
CN=C(NS(=O)(=O)c1cccc([N+](=O)[O-])c1)c1ccccc1,5%
COc1ccccc1OCCCn1c(=O)oc2ccccc21,i
Cc1ccc(NS(=O)(=O)c2ccc(NS(=O)(=O)c3ccccc3[N+](=O)[O-])cc2)cc1C,i
Cc1c(C(=O)Nc2ccccc2)sc2ncn(C(C)C(=O)OC3CCCCC3)c(=O)c12 (stereo unspecified),47%
O=C(Nc1ccc2c(C(F)(F)F)cc(=O)oc2c1)C1CCC1,i
CCS(=O)(=O)N1CCN(S(=O)(=O)c2ccc3ccccc3c2)CC1,i
Cc1ccc(C(=O)Nc2ccc(NC(=O)c3ccc(C)c(C)c3)cc2)cc1C,i
O=C1c2oc3ccccc3c(=O)c2C(c2cccnc2)N1c1nccs1 (stereo unspecified),i
Cn1nnnc1SCc1ccc([N+](=O)[O-])cc1,i
CC(C)(C)S(=O)(=O)c1ccc(-c2ccccc2)cc1,3%
CCOC(=O)c1c(-c2ccc(C)o2)csc1N,i
Cc1nnc(SCc2ccon2)n1-c1ccccc1,i
COc1ccc(NC(=O)Nc2ncccc2C)cc1OC,i
CS(=O)(=O)N1N=C(c2cccs2)CC1c1cccs1 (stereo unspecified),i
O=C(c1ccc(-c2ccccc2)cc1)N1CCN(CC2CC=CCC2)CC1 (stereo unspecified),7%
Cc1ccc(F)c(NS(=O)(=O)c2cccc([N+](=O)[O-])c2)c1,i
O=C(COc1ccccc1)Nc1ccc(N2CCCCC2)c(Cl)c1,43%
CC(C)c1ccc(C(=O)NCCCc2ccccc2)cc1,i
CC(C)C(=O)N1CCN(c2ccccc2)CC1,i
COC(=O)c1ccc(COC(=O)COc2ccccc2C)cc1,31%
COc1ccccc1NC(=O)C1CCN(C(=O)c2cccs2)CC1,i
O=C(c1ccc(NC(=O)c2cc(F)c(F)cc2Cl)cc1)c1cccs1,39%
CCNC(=S)Nc1ccc(Oc2ccccc2)cc1,i
O=C(Cn1cnc2ccccc2c1=O)Nc1ccc2c(c1)oc1ccccc12,i
CC(C)C(NC(=O)c1ccccc1)c1nnc(SCC(=O)Nc2ccc(Cl)cc2)n1C (stereo unspecified),i
CCc1cc2c3c(c1)C1(C(=O)N3C(C)(C)C=C2C)C(C#N)=C(N)OC2=C1C(=O)CCC2 (stereo unspecified),i
CCCCNc1sc(S(C)(=O)=O)nc1S(=O)(=O)c1ccc(C)cc1,i
CCOC(=O)c1c(NC(=O)c2cccc(OC(C)C)c2)sc(C(=O)N(CC)CC)c1C,2%
Cc1ccc(NC(=O)c2ccccc2NC(=O)C(C)(C)C)c(C)c1,i
O=C(NCc1ccc2c(c1)OCO2)C1CC(c2c(F)cccc2Cl)=NO1 (stereo unspecified),i
Cc1ccccc1OCC(=O)NC(=S)Nc1ccc2oc(-c3cc(F)c(F)cc3Cl)nc2c1,6%
Clc1ccc(OCCN2CCNCC2)c2ccccc12,i
COC(=O)c1sccc1NC(=O)c1cc(-c2ccc(OC)c(OC)c2)nc2ccccc12,i
C=CCNCCOc1cccc(CC)c1,i
CCOC(=O)c1c(NC(=O)c2ccco2)sc(-c2ccccc2)c1-c1ccccc1,i

# Four entries from above, as labelled records:
CC(C)C(NC(=O)c1ccccc1)c1nnc(SCC(=O)Nc2ccc(Cl)cc2)n1C (stereo unspecified)
  Mtb H37Rv: i

CCc1cc2c3c(c1)C1(C(=O)N3C(C)(C)C=C2C)C(C#N)=C(N)OC2=C1C(=O)CCC2 (stereo unspecified)
  Mtb H37Rv: i

CCCCNc1sc(S(C)(=O)=O)nc1S(=O)(=O)c1ccc(C)cc1
  Mtb H37Rv: i

CCOC(=O)c1c(NC(=O)c2cccc(OC(C)C)c2)sc(C(=O)N(CC)CC)c1C
  Mtb H37Rv: 2%

# Next part:
SMILES,Mtb H37Rv
CC(C)OC(=O)CSc1nc(-c2ccccc2)cc(C(F)(F)F)c1C#N,i
Cc1cc(=O)oc2cc(NC(=S)NCc3ccccn3)ccc12,i
O=C(CSc1nnnn1C1CCCCC1)NCc1cccc(C(=O)O)c1,i
CCOC(=O)c1c(C)oc2cc(Br)c(OC(=O)N3CCOCC3)cc12,i
Cc1cc([N+](=O)[O-])ccc1N1CCN(S(=O)(=O)c2ccc(Cl)c(Cl)c2)CC1,5%
O=C(Oc1ccc2ccccc2c1Br)c1ccccc1[N+](=O)[O-],i
CC1CCCCN1C(=O)C(Cl)(Cl)Cl (stereo unspecified),i
COc1ccc(NC(=O)Nc2ccccc2C(=O)N2CCCC2)cc1,i
NC(=O)CN1CCN(c2cccc(Cl)c2)CC1,5%
Cc1ccccc1C(=O)N1CCN(c2ccc(NC(=O)c3ccc4ccccc4c3)cc2)CC1,i
Cc1ccc(-c2nc3ncccc3o2)cc1NC(=O)c1ccc(-c2cccc(Cl)c2Cl)o1,i
